# Compound activity: PubChem, Center for Chemical Genomics, University of Michigan
# CDC25B CDK2 inh = primary biochemical HTRF screen for blockers of M-phase inducer phosphatase 2 binding to CDK2/cyclin A; P30305+P24941; HTRF CDC25B-CDK2/CyclinA binding, anti-His/anti-Flag; hits give high values; z-score (test concentration not listed); 94,000 compounds, 0.72% hits; AID 1259370, 2018;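 note: score is relative to mean and SD of negative controls; strong numbers were not always called active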
# TAR Tat displ = TAR RNA-Tat peptide displacers, HIV-1, primary screen, biochemical, FRET, FAM/TAMRA-labeled Tat; HIV-1 TAR RNA, Tat peptide displacement FRET; hits give high values; 100,000 compounds, 0.6% hits; z-score (concentration not given with the values);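 note: score is relative to mean and SD of negative controls; some compounds called inactive have numbers as strong as hits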
# Starred values were filed as active, the others as inactive; / = not tested or not shown.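 Rule for the calls: active = z-score from 3 up in half or more of its runs; inactive = the rest.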
SMILES,CDC25B CDK2 inh,TAR Tat displ
CCC(Sc1ncnc2sc3c(c12)CCC(C)C3)C(=O)OC (stereo not drawn),-1.05,/
COc1cc(OC)c(NC(=O)c2[nH]nc3c2CSc2ccccc2-3)cc1Cl,/,3.12
O=C(CSc1nnc2scc(-c3ccccc3)n12)Nc1nsc(-c2ccccc2)n1,-0.25,0.79
CC(C)(C)c1ccc(S(=O)(=O)c2c[nH]c3cc4c(cc3c2=O)OCO4)cc1,-1.47,0.35
CCNC(=O)C(=O)NCC(c1ccco1)S(=O)(=O)c1cccs1 (stereo not drawn),/,1.87
O=C(Nc1nsc(-c2ccccc2)n1)c1cccs1,1.51,1.35
Cc1noc2ncnc(NCCCN3CCN(c4ccccc4)CC3)c12,/,0.32
O=C(CN(C1=NC2CS(=O)(=O)CC2S1)c1cccc(Cl)c1)Nc1ccc(F)cc1 (stereo not drawn),-3.62,1.17
O=C(CCCCCn1c(=S)[nH]c2ccccc2c1=O)NCCc1c[nH]c2ccccc12,-1.09,/
O=C(c1noc2c1CSc1ccccc1-2)N1CCN(c2cccc(Cl)c2)CC1,-0.76,1.75
Cc1nnsc1C(=O)Nc1nccs1,-0.78,0.45
COc1ccc(-c2cc(C)no2)cc1S(=O)(=O)N(CCN1CCOCC1)Cc1ccco1,/,-0.47
CCCN1CCN(c2cc3c(cc2F)c(=O)c(S(=O)(=O)c2ccccc2)cn3CC)CC1,/,0.08
O=C(CSC1=Nc2ccccc2N=C(c2ccc(F)cc2)C1)NC1CCCC1,/,0.5
CCN(CC)S(=O)(=O)c1c[nH]c(C(=O)OC)c1,/,2.28
O=C(NCCN1CCCC1)c1cnc2sc3c(n2c1=O)CCCC3,/,1.29
C=C(C)n1c(=O)n(Cc2ccccc2C)c2ccccc21,0.18,0.33
CCOc1ccccc1Nc1ncnc2c1cnn2C,/,1.91
O=C1CCCCC(=O)N(c2ccccc2)c2ccccc21,-2.17,1.62
O=S(=O)(NCCc1csc2nc(-c3cccs3)nn12)c1cccc(Cl)c1,/,-1.5
CC(=O)N1CCOc2ccc(S(=O)(=O)NCC3CCC(C(=O)NC4CCCCC4C)CC3)cc21 (stereo not drawn),/,0.38
CC1CC(=O)Nc2cc(S(=O)(=O)N(CCCN3CCOCC3)Cc3ccco3)ccc2S1 (stereo not drawn),/,0.17
Nc1c(C2=NCCO2)nnn1Cc1ccccc1,-0.73,0.38
CC(C)c1nnc(NC(=O)Cn2c(=O)sc3ccccc32)s1,-1.76,2.06
c1ccc2c(c1)CC1OC(CC3=N[C@H]4c5ccccc5C[C@H]4O3)=NC21 (stereo partly drawn),-1.63,/
NC(=S)c1cc(Br)cc(Br)c1,-1.28,/
CC[C@H](C)C(=O)O[C@H]1CCC=C2C=C[C@H](C)C(CCC3C[C@@H](O)CC(=O)O3)[C@H]21 (stereo partly drawn),/,0.7
CCC(C)NC(=O)C1CCCN(c2nn3c(=O)cc(C)nc3s2)C1 (stereo not drawn),0.3,0.85
CC(=O)N1CCC2(CC1)OC(=O)C(C)=C2C(=O)NCCN(C)C,/,1.6
COc1ccccc1N1CCN(CC(O)COc2cccc3ccccc23)CC1 (stereo not drawn),-0.69,1.39
C=CCn1c(COc2cccc3cccnc23)nnc1SCC(N)=O,-1.06,1.54
COc1ccc(OC)c(-n2nnc(S(=O)(=O)c3ccccc3)c2C)c1,1.72,0.44
NNC(=O)CC1C(=O)NCCN1Cc1c(Cl)cccc1Cl (stereo not drawn),-0.63,/
CCN(CC)c1ccc(NS(=O)(=O)c2ccc(-c3coc(C)n3)cc2)c(C)c1,/,1.48
COC(=O)Cn1cc(-c2nnco2)c2ccccc21,-1.85,0.39
CN1C(=O)C(C)(C)c2cc(S(=O)(=O)NCc3cccc(Br)c3)ccc21,/,1.21
CC1(C)CC(=O)C2=C(C1)NC1=C(C(=O)c3ccccc31)C2c1cccc(O)c1 (stereo not drawn),-1.8,0.93
CC1=C(c2ccc(F)cc2)S(=O)(=O)NC1=NCc1ccccc1F,/,0.22
CSc1ncc(Cl)c(C(=O)O)n1,-0.49,/
COc1ccc(-c2c(C#N)c(C(C)=O)[nH]c(=O)c2C#N)cc1,0.97,/
O=C(CSc1nc(-c2cccs2)cc(C(F)(F)F)n1)NCc1cccs1,-0.14,2.48
COc1ccc(-c2noc(N3CCN(c4ccc(C)cc4)C(C)C3)n2)cc1 (stereo not drawn),-3.31,1.41
CN1CCN(c2cc3c(nn2)Oc2ccccc2N3C)CC1,-2.37,3
C=CCn1c(SCC(N)=O)nc2sc3c(c2c1=O)CCCC3,-2.45,/
O=C1CC(c2ccc(NC(=O)C(F)(F)F)cc2)C(=O)N1c1ccc(OC(F)(F)F)cc1 (stereo not drawn),-0.45,/
Cc1nc(SCC(=O)Nc2ccc(F)cc2F)c2c(=O)n(C)c(=O)n(C)c2n1,-2.98,/
CC(C)Cn1c(SCc2nc(-c3cccs3)no2)nnc1-c1ccncc1,-1.14,2.93
CCc1nnc2c(N3CCN(c4ccc(F)cc4)CC3)nc3ccccc3n12,/,0.43
COCCCNC(=O)CSc1nc(-c2ccc3c(c2)OCO3)nc2cc(=O)[nH]n12,/,0.15
O=S(=O)(c1ccc(F)cc1)N1CCN(Cc2ccccc2F)CC1,0.89,0.82
O=C(Nc1ccccc1)C1=C(N2CCCCC2)c2ccccc2S1(=O)=O,/,2.15
CN(C)CCN1C(=O)C(=O)/C(=C(/O)c2ccc(F)cc2)C1c1cccs1 (stereo not drawn),-1.06,0.95
O=C(NCCn1nc(-c2ccc(Cl)cc2)ccc1=O)c1ccc(F)cc1F,/,1.48
CCc1nn2c(=O)cc(COC(=O)c3cccs3)nc2s1,/,0.14
CCN(CC)c1nc(Nc2ccc(C)c(Cl)c2)c2cnn(C)c2n1,/,1.68
CC1CCC(NC(=O)CN2C(=O)CSc3ncccc32)CC1 (stereo not drawn),-0.57,-0.21
O=C(Cn1c(=O)oc2ccccc21)NCCSCc1ccco1,/,1.14
Cn1c(=O)c2c(nc(CN3CCN(c4ccccc4F)CC3)n2CCCO)n(C)c1=O,-1.56,-0.28
CCCCCNS(=O)(=O)c1cc2c3c(c1)CC(=O)N3CCC2,/,1.21
O=C(NCCN1CCCC1=O)Nc1ccccc1,-1.26,2.44
# Next part
SMILES,CDC25B CDK2 inh,TAR Tat displ
CC1CCN(C(=O)C2=CC(c3ccc4c(c3)OCO4)=NS(=O)(=O)N2C)CC1,-1.23,2.11
Cc1noc(C)c1C(=O)Sc1cccc(C(F)(F)F)c1,-1.96,/
COc1cc(C2C(C(=O)OCC(C)C)=C(C)NC3=C2C(=O)CC(c2cccs2)C3)ccc1O (stereo not drawn),-1.78,-1.28
C=CCNc1ncnc2ccc(Br)cc12,-1.34,1.62
Cc1nc2ccccc2nc1CSc1ccc(N)cc1,1.81,-0.16
COc1ccc(Br)cc1C1Oc2nc(SC)nnc2-c2ccccc2N1C(C)=O (stereo not drawn),-1.41,-0.65
CC(=O)Oc1ccc2ccccc2c1C1=NN(C(C)=O)C(c2cc(C)nc3ccccc23)O1 (stereo not drawn),/,1.05
O=C(Cn1ncn2c(cc3ccccc32)c1=O)NCc1ccc2c(c1)OCO2,-1.14,-1.21
CSC(=Nc1ccccc1C(F)(F)F)N1CCCC1,-1.42,/
Cc1cc(C)n(-c2nc3c(c(=O)n2CC(=O)N2CCc4ccccc42)CCC3)n1,/,2.38
Cc1cc(C(=O)NNC(=O)CSCc2cccc3ccccc23)no1,-1.77,/
Cc1cc2nc(CSc3nc(-c4ccccc4C)nc4cc(=O)[nH]n34)cc(=O)n2o1,/,1.74
CCSc1ncc(Cl)c(C(=O)Nc2sc3c(c2C(=O)NCc2ccco2)CCCC3)n1,-0.79,1.85
CN(C)CCCN1C(=O)C(=O)/C(=C(/O)c2ccc(S(=O)(=O)N(C)C)cc2)C1c1ccccc1 (stereo not drawn),-0.17,-0.3
CS(=O)(=O)N1CCCc2ccc(NS(=O)(=O)c3ccc(Br)cc3)cc21,/,0.31
CCOC(=O)c1sc2nc(C)nc(Nc3cccc(Cl)c3)c2c1C,-2.34,/
COc1ccc(OC)c(NS(=O)(=O)c2c(C)[nH]c(=O)[nH]c2=O)c1,/,2.04
COc1ccc(-c2cc3ccccc3n2CC(O)CN2CCOCC2)cc1 (stereo not drawn),-1.33,-0.61
OC1(C[n+]2ccccc2)NCCc2ccccc21 (stereo not drawn),-0.65,/
Cc1cccnc1NC(=O)c1c(O)c2cc(F)cc3c2n(c1=O)C(C)CC3 (stereo not drawn),-1.54,/
C=CCOc1cccc(C2c3c(oc4ccccc4c3=O)C(=O)N2c2ccccn2)c1 (stereo not drawn),-0.81,2.03
C=CCC(CO)C/C(=C\I)CCCCC (stereo not drawn),1.47,/
Cc1[nH]n(-c2ccccc2)c(=O)c1N=Nc1c(C)n(C)n(-c2ccccc2)c1=O,-1.05,/
Cc1sc2ncnc(N3CCC(C(N)=O)CC3)c2c1C,-0.96,2.03
CCOC(=O)c1cn(CC)c2cc(F)c(F)cc2c1=O,0.52,-1.09
CC1CN(c2nc(Nc3ccc(F)cc3)c3cnn(C)c3n2)CC(C)O1 (stereo not drawn),/,-0.78
CC(C)CCCC(C)C1CCC2C3=CC[C@H]4C[C@@H](O)CC[C@]4(C)C3CC[C@@]21C (stereo partly drawn),/,1.43
CCc1ccc(NC(=O)Nc2csc3c2CCCC3)cc1,1.39,2.35
Cc1cc(C)c(CN2C(=O)C(=O)c3ccccc32)cc1CN1C(=O)C(=O)c2ccccc21,-3.06,1.81
COC(=O)c1nn(-c2ccc(F)cc2)ccc1=O,-1.68,/
COc1ccc(-c2cc(OC(=O)c3ccccc3Cl)c3c(C)oc(C)c3c(=O)c2)cc1OC,-2.12,-1.74
CC1=C(c2ccc(Cl)cc2)S(=O)(=O)NC1=NCCc1ccc(S(N)(=O)=O)cc1,-0.54,0.38
Cc1cc(N/C=C(\C#N)C(=O)c2cc(C)oc2C(F)(F)F)no1,-0.92,/
O=C1C(c2ccc(Cl)cc2)N(C2CCCC2)C(=O)CN1C1CCCCCC1 (stereo not drawn),-0.52,/
COc1ccc(C2NC(C(=O)O)Cc3c2[nH]c2ccccc32)cc1Cn1nnc2ccccc21 (stereo not drawn),-1.81,/
CS(=O)(=O)Nc1ccc(C2=NN(C(=O)CCCC(=O)O)C(c3cccs3)C2)cc1 (stereo not drawn),-1.91,0.92
COC(=O)c1cc(S(=O)(=O)NCCCN2CCc3ccccc3C2)c[nH]1,/,0.89
CCc1nc(NCCN2CCOCC2)c(C#N)c2c1CCCC2,-1.73,/
O=S(=O)(NCc1ccccc1)c1ccc(-n2cccn2)cc1,/,1.23
Cn1c(=O)c2c(SCC(=O)NCc3ccc4c(c3)OCO4)nc(C3CC3)nc2n(C)c1=O,/,-0.1
CCCC(=O)NCCc1c2n(c3ccc(OC)cc13)CCCc1ccccc1-2,-2.66,/
CCOc1ccc2c(c1)C(=O)c1cc(OCC(=O)OC)ccc1-2,-1.8,-2.84
CC1(C)Cc2nc3[nH]c(=O)n(Cc4ccco4)c(=O)c3cc2CO1,-1.48,0.6
CC(C)c1nc2ccccc2n1CCCOc1ccccc1,-0.63,0.8
Cc1nc2scc(C)n2c(=O)c1S(=O)(=O)Nc1ccc(C(C)C)cc1,0.9,1.16
O=C(NCCc1c[nH]c2ccccc12)C(=O)c1cn(CC(=O)N2CCOCC2)c2ccccc12,/,1.94
Cc1ccc(C(=O)NCc2cn[nH]c2C)cc1NC(=O)C1=CSCCO1,/,1.88
CCCN1CCN(c2ncc3c(n2)CCN(Cc2ccccc2)C3)CC1,/,0.12
CC(C)CC(=O)NCC(c1ccco1)S(=O)(=O)c1ccc(Cl)cc1 (stereo not drawn),/,0.54
O=C(NCc1ccc(F)cc1)C1CCCN(c2nn3c(=O)c4c(nc3s2)CCCC4)C1 (stereo not drawn),/,0.92
N#Cc1c(NC(=O)c2ccccc2)sc2c1CCCCC2,-0.54,0.88
Cc1ccc(CSC(=N)N)cc1,-1.59,/
COc1ccc(Cc2nnc3n2N=C(c2ccc(F)cc2)CS3)cc1,/,0.72
C1=C(c2ccccc2)N2CCCCN=C2S1,-0.65,/
